# PKD1 kinase inh – inhibitors of human PKD1 kinase; Q15139; PKD1 kinase fluorescence polarization assay; inhibition, %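 (about 10 µM by stock and volumes)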; 200,000 compounds, 0.056% hits; AID 797;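 active means inhibition of 50% or more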;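 further: controls were vehicle for no effect and a reference inhibitor for full effect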
# HSV replic up – HSV replication enhancement. maximum fold increase. HSV replication augmentation in cells, fold increase. 220,000 compounds, 0.005% hits;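 active means peak rise of 1.5-fold or more in the series; tested in PC3 cells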;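 further: first round at 10 µM; read as green reporter fluorescence; hits show the peak of a series up to 25 µM; 1 = signal of infected wells without compound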
# GALR2 agonist – agonists of human galanin receptor 2 (GALR2); O43603; GALR2-expressing cells, agonist activation read-out; activation, %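 (tested at 5 µM)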; 140,000 compounds, 0.48% hits; AID 803;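 active means above mean plus 3 SD of all compounds, about 5% in these data, not always enough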;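 further: 0% = vehicle buffer wells and 100% = reference agonist at full effect; tested in CHO reporter cells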
# Target sequence (O43603 whole entry, looked up): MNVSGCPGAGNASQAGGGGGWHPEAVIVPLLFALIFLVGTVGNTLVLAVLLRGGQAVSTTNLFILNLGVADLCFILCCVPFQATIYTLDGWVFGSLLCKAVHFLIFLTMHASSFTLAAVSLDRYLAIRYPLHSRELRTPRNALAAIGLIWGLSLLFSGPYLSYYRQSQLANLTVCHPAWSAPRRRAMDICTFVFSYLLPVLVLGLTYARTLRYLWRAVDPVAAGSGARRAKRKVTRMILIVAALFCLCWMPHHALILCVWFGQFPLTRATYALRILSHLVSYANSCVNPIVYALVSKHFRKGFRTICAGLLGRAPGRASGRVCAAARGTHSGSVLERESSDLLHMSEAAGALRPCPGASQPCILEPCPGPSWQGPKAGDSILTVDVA
# INS promoter inh – TRM-6 insulin promoter activity inhibition; TRM-6 cells (human fetal islet line), insulin promoter-eGFP reporter, imaging; reporter expression induced with tamoxifen; inhibition, % at 2 µM; 130,000 compounds, 0.9% hits; AID 1273;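 active means inhibition above the mean plus 3 SD, with well images judged a real hit on visual review, cut at about 60% in these data, passing the limit was not always enough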
# RGS16-Gao – regulators of human RGS16-Galphao interaction; binding response (% of control), % at 10 µM; bead-based flow cytometry RGS16-Galphao binding, fluorescence; actives lie on both sides; 220,000 compounds, 0.38% hits; O15492+P09471; AID 1441;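 active means below 25% or above 175%, edge rows of some plates excepted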;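 further: Galphao activated by GDP with aluminum fluoride before binding; 100% = wells without compound and 0% = beads without RGS; some results beyond the cut were filed as inactive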
# Target sequence (O15492 whole entry, looked up): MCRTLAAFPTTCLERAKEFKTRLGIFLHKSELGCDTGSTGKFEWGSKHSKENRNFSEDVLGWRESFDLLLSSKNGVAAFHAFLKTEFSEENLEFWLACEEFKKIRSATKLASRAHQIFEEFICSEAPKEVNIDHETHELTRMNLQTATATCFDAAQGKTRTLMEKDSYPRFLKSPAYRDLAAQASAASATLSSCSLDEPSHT
# Target sequence (P09471 whole entry, looked up): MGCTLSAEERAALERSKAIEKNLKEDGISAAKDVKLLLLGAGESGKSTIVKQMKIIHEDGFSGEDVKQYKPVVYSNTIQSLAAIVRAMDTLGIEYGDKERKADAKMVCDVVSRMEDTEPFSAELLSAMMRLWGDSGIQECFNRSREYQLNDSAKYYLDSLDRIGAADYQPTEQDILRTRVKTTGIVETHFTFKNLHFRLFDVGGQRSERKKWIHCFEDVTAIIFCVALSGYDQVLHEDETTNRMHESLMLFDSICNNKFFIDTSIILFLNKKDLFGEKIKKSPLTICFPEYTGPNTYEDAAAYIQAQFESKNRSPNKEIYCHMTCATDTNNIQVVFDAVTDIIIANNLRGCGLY
# INS promoter inh cell count – further read-out of INS promoter inh, marked with its call; normalized cell count, %; measured here: cell count, toxicity; reference of the scale not given here;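 cells exposed to compound for 48 h; stained nuclei by imaging scaled within each plate; lower means fewer cells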
# HSV replic up primary fold – second read-out of HSV replic up, no call of its own (marks repeat the call); fold increase; compound at 10 µM; measured here: primary screen fold increase 10 uM; tested in PC3 cells;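 GFP signal in the first replicate; 1 = infected wells without compound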
# An asterisk follows results filed as active; i = inactive; / = not tested or not shown.
# Order of values: PKD1 kinase inh | HSV replic up | HSV replic up primary fold | GALR2 agonist | INS promoter inh | INS promoter inh cell count | RGS16-Gao
> NC(=O)c1ccc(NC(=O)COC(=O)CCCc2c[nH]c3ccccc23)cc1
 : -11 | i | 0.95 | / | / | / | 108
> COc1cc(/C=N/NC(=O)c2cccc(NC(=O)c3ccccc3Cl)c2)ccc1O
 : -1 | i | 0.9 | / | / | / | 96
> O=C(CCC(=O)OCC(=O)c1ccc(F)cc1)NC1CCCCC1
 : -4 | i | 1 | -1.6 | 26 | 120 | 95
> N#Cc1c(N(CCO)CCO)nc(N)c2c(N)nc3c(c12)CC(=O)N3Cc1cccs1
 : / | i | 1.2 | / | / | / | 98
> O=S(=O)(c1ccccc1)c1nc(Nc2cccc(O)c2)sc1Cl
 : 16 | i | 0.89 | -1.9 | -23 | 135 | 102
> O=C(CCSCCc1ccccn1)Nc1ccc(Br)cn1
 : 5 | i | 1.1 | -1.8 | / | / | 102
> COCc1c(C(=O)N/N=C(/C)c2ccccc2)nnn1-c1nonc1N
 : -4 | i | 1 | / | / | / | 99
> CCNS(=O)(=O)c1ccc(OCCNS(C)(=O)=O)cc1
 : 5 | i | 0.97 | -3.0 | -186 | 81 | 73
> CCCc1cc(=O)[nH]c(Nc2cc(OC)ccc2OC)n1
 : -9 | i | 0.93 | -2.3 | 46 | 119 | 92
> CC(C)c1nc(SCC(=O)c2ccccc2)c2c(=O)n(C)c(=O)n(C)c2n1
 : -19 | i | 1 | -1.5 | / | / | 109
> CC(=O)N1N=C(c2ccccc2)OC1c1cccnc1 (configuration not stated)
 : -5 | i | 1.1 | / | / | / | 100
> Cn1cnnc1SC(C(=O)Nc1cc(Cl)cc(Cl)c1)c1ccccc1 (configuration not stated)
 : -3 | i | 0.8 | -0.6 | -26 | 178 | 104
> Cc1cccc(N2C(=O)C(Cc3ccccc3)NC2=S)c1 (configuration not stated)
 : -4 | i | 0.96 | -0.7 | / | / | 102
> COc1cccc(CNC(=O)CCC2CCCN(C(=O)CCc3c(C)noc3C)C2)c1 (configuration not stated)
 : -5 | i | 1 | / | / | / | 107
> COc1ccc(C2(O)CN(c3ccc(C)cc3)C3=[N+]2CCCC3)cc1 (configuration not stated)
 : -6 | i | 0.95 | / | 36 | 137 | 103
> CCOC(=O)c1sc2nc(NC(=O)C3CC3)sc2c1C
 : -4 | i | 0.98 | -2.4 | / | / | 97
> CN(C)S(=O)(=O)c1cccc(NC(=O)Cn2cnc3ccccc3c2=O)c1
 : -7 | i | 0.95 | -3.7 | -19 | 107 | 98
> Cc1nnc(Sc2nc3c(c(=O)n(C)c(=O)n3C)n2Cc2ccc(Cl)cc2)s1
 : 2 | i | 0.97 | -0.8 | 21 | 104 | 100
> O=c1ccc(/C=C/c2ccccc2)nn1Cc1ccc(Cl)cc1Cl
 : 3 | i | 1.2 | -0.2 | / | / | 89
> Nc1nc(SCC(=O)Nc2ccc(Cl)cc2)[nH]c(=O)c1-c1ccccc1
 : 0 | i | 0.89 | / | 20 | 142 | 99

# Profiles from above. Order of screens: PKD1 kinase inh | HSV replic up | HSV replic up primary fold | GALR2 agonist | INS promoter inh | INS promoter inh cell count | RGS16-Gao
# NC(=O)c1ccc(NC(=O)COC(=O)CCCc2c[nH]c3ccccc23)cc1 reads -11 | i | 0.95 | / | / | / | 108
# O=S(=O)(c1ccccc1)c1nc(Nc2cccc(O)c2)sc1Cl reads 16 | i | 0.89 | -1.9 | -23 | 135 | 102
# O=c1ccc(/C=C/c2ccccc2)nn1Cc1ccc(Cl)cc1Cl reads 3 | i | 1.2 | -0.2 | / | / | 89

# 6 records picked at random from the list so far, as already listed:
# Order of values: PKD1 kinase inh | HSV replic up | HSV replic up primary fold | GALR2 agonist | INS promoter inh | INS promoter inh cell count | RGS16-Gao
> Cc1cccc(N2C(=O)C(Cc3ccccc3)NC2=S)c1 (configuration not stated)
 : -4 | i | 0.96 | -0.7 | / | / | 102
> CN(C)S(=O)(=O)c1cccc(NC(=O)Cn2cnc3ccccc3c2=O)c1
 : -7 | i | 0.95 | -3.7 | -19 | 107 | 98
> Nc1nc(SCC(=O)Nc2ccc(Cl)cc2)[nH]c(=O)c1-c1ccccc1
 : 0 | i | 0.89 | / | 20 | 142 | 99
> CCOC(=O)c1sc2nc(NC(=O)C3CC3)sc2c1C
 : -4 | i | 0.98 | -2.4 | / | / | 97
> CC(=O)N1N=C(c2ccccc2)OC1c1cccnc1 (configuration not stated)
 : -5 | i | 1.1 | / | / | / | 100
> O=c1ccc(/C=C/c2ccccc2)nn1Cc1ccc(Cl)cc1Cl
 : 3 | i | 1.2 | -0.2 | / | / | 89

# New compounds follow:
# Order of values: PKD1 kinase inh | HSV replic up | HSV replic up primary fold | GALR2 agonist | INS promoter inh | INS promoter inh cell count | RGS16-Gao
> CCOCCCNC(=O)c1ccc2c(c1)OCO2
 : -1 | i | 0.8 | -4.2 | -279 | 33 | 99
> COc1cccc(C(O)c2nc3ccccc3n2C(C)C)c1 (configuration not stated)
 : -11 | / | / | -1.9 | 18 | 72 | 113
> O=C(NNC1=Nc2ccccc2SC1)c1ccc(F)cc1
 : / | i | 1 | / | / | / | 102
> CC1(C)C2([N+](=O)[O-])CN3CC1([N+](=O)[O-])CN(C2)C3C(O)C(O)C(O)CO (configuration not stated)
 : / | i | 1.2 | / | / | / | 98
> CCOC(=O)c1c(CN2CCOCC2)n(-c2ccccc2)c2ccc(O)cc12
 : 8 | i | 0.76 | -0.1 | 0 | 71 | 100
> O=S(=O)(NCCc1csc(-c2ccccc2)n1)c1ccc2c(c1)OCCO2
 : 2 | i | 0.96 | -4.8 | -93 | 108 | 95
> CC(OC(=O)c1cc2sccc2n1C)C(=O)NCC1CCCO1 (configuration not stated)
 : -4 | i | 0.85 | -1.7 | / | / | 102
> CC(=O)Nc1nonc1-c1nc2ccccc2n1Cc1ccccc1
 : -9 | i | 0.6 | -0.6 | / | / | 104
> CC(C)(C)Nc1nc(N2CCCC2)nc(N2CCCC2)n1
 : -6 | i | 0.87 | -1.1 | -29 | 115 | 101
> COc1ccc(C)cc1-n1nnnc1SCC(=O)c1cc(C)n(Cc2ccco2)c1C
 : -12 | i | 0.92 | -3.4 | / | / | 99
> COc1ccccc1NC(=O)CN1CCN(CC(=O)Nc2cc(NC(C)=O)ccc2OC)CC1
 : -7 | i | 0.88 | -1.4 | 64 | 93 | 100
> CCc1cccc(OCC(=O)Nc2ccc(S(=O)(=O)Nc3onc(C)c3C)cc2)c1
 : -4 | / | / | -2.5 | / | / | 104
> CCn1c(SCC(=O)Nc2ccccc2)nc2c1c(=O)n(C)c(=O)n2C
 : -1 | i | 0.9 | -0.4 | 54 | 137 | 101
> CCN(CC)CC(O)COc1ccccc1C(=O)CCc1ccccc1 (configuration not stated)
 : 1 | i | 0.75 | -0.8 | / | / | /
> CCCNC(=O)C1CCN(S(=O)(=O)c2ccc(-c3nn[nH]n3)cc2)CC1
 : -1 | i | 0.74 | -2.6 | / | / | 100
> C/C(Cn1cnc([N+](=O)[O-])n1)=N\NC(=O)c1cccnc1
 : -1 | i | 0.95 | -1.1 | 15 | 119 | 102
> CCC(C)(C)c1ccc(OCCCC[n+]2ccc(C)cc2)c(C(C)(C)CC)c1
 : 3 | i | 0.61 | / | / | / | 101
> Cc1[nH]n(-c2ccccc2)c(=O)c1/C=N/N(c1ccccc1)c1ccccc1
 : -7 | i | 0.9 | / | / | / | 108
> NNC(=O)CSc1nc(-c2ccccc2)cn1-c1ccccc1
 : / | i | 1 | / | / | / | 101
> CCN(CC)C(=O)CSc1nnc(-c2ccco2)n1Cc1ccco1
 : -2 | i | 1 | -1.9 | 30 | 95 | 104

# Of the compounds above, these contain a thiophene ring, fused or not:
# Order of values: PKD1 kinase inh | HSV replic up | HSV replic up primary fold | GALR2 agonist | INS promoter inh | INS promoter inh cell count | RGS16-Gao
> N#Cc1c(N(CCO)CCO)nc(N)c2c(N)nc3c(c12)CC(=O)N3Cc1cccs1
 : / | i | 1.2 | / | / | / | 98
> CCOC(=O)c1sc2nc(NC(=O)C3CC3)sc2c1C
 : -4 | i | 0.98 | -2.4 | / | / | 97
> CC(OC(=O)c1cc2sccc2n1C)C(=O)NCC1CCCO1 (configuration not stated)
 : -4 | i | 0.85 | -1.7 | / | / | 102

# New compounds follow.
# Order of values: PKD1 kinase inh | HSV replic up | HSV replic up primary fold | GALR2 agonist | INS promoter inh | INS promoter inh cell count | RGS16-Gao
> Cc1cccn2c(NCc3ccc4c(c3)OCO4)c(-c3ccc(O)cc3)nc12
 : -6 | i | 0.95 | / | / | / | 103
> CCOc1ccc(CNC(=O)C2CCN(S(=O)(=O)CC)CC2)cc1OC
 : 7 | i | 0.82 | -1.4 | 18 | 133 | 101
> CCOc1ccccc1Nc1cc(C)nc2nnnn12
 : 0 | i | 0.91 | / | 20 | 60 | 104
> Cc1ccc(-c2n[nH]c(=S)n2/N=C/c2ccc(C)o2)cc1
 : 3 | i | 1 | -1.1 | / | / | 94
> CCCCCn1c(=O)c(C(=O)c2ccccc2)nc2ccccc21
 : -3 | i | 0.7 | -1.8 | -6 | 204 | 115
> Brc1ccc(-c2nnc3n2-c2ccccc2CC3)cc1
 : 5 | i | 0.81 | -1.5 | / | / | 100
> CC(=O)c1cnn(-c2ccc(Cl)c(Cl)c2Cl)c1C
 : / | i | 1.2 | / | / | / | 111
> CCCN(CCC)CCNC(=O)C1CC(=O)N(c2ccc(OC)cc2)C1c1ccc(OC)cc1 (configuration not stated)
 : 2 | i | 0.88 | -1.7 | -47 | 41 | 94
> O=C1CCN=C(Nc2ccc(F)cc2)N1Cc1ccccc1
 : -9 | i | 0.96 | -0.5 | -25 | 133 | 103
> CC(C)c1ccc(C(=O)NCCCN2CCN(CCCNC(=O)c3ccc(C(C)C)cc3)CC2)cc1
 : 1 | i | 0.53 | 0.7 | -5 | 100 | 114
> CCOC(=O)CC(NS(=O)(=O)c1ccc(OC)c(OC)c1)c1cccc([N+](=O)[O-])c1 (configuration not stated)
 : -2 | i | 0.92 | -1.2 | 7 | 93 | 103
> CC(C(=O)NC1CC1)c1ncc(C(F)(F)F)cc1Cl (configuration not stated)
 : 0 | i | 1 | / | 35 | 77 | 101
> Cc1cccc(OCC(=O)Nc2ccc(N3CCCC3)cc2)c1C
 : / | i | 0.82 | / | / | / | 53
> CC(c1ccon1)N(C)C(=O)CCc1nnc(C2(c3ccc(Cl)cc3)CCC2)o1 (configuration not stated)
 : -7 | i | 0.86 | / | / | / | 100
> CCn1c(-c2ccsc2)nc2c1c(=O)[nH]c(=O)n2Cc1ccccc1
 : 9 | i | 0.97 | -2.0 | / | / | 92
> O=c1cc(O)c(-c2ccc(Cl)c(Cl)c2)c(Cl)[nH]1
 : 1 | / | / | / | -8 | 129 | 102
> CC(=O)Nc1ccc(N2C(=O)CSC2c2ccc(F)cc2)cc1 (configuration not stated)
 : 11 | i | 0.78 | -0.4 | 4 | 115 | 101
> N#Cc1ccccc1NC(=O)c1cccc(COc2ccc(Cl)cc2Cl)c1
 : -13 | i | 0.86 | -1.8 | 4 | 111 | 100
> COc1ccc(-c2nn3c(-c4ccccc4)nnc3s2)cc1OC
 : -3 | i | 0.77 | 1.2 | -33 | 144 | 102
> COc1cccc(NC(=O)CN(C)C(C)C(=O)Nc2ccc(S(=O)(=O)N3CCCC3)cc2)c1 (configuration not stated)
 : -9 | i | 0.97 | / | / | / | 102
> COC(=O)c1ccsc1NC(=O)CSc1nnnn1Cc1ccccc1
 : -2 | i | 0.91 | -3.1 | -3 | 100 | 100
> Cc1ccc2c(c1)c(-c1ccccc1)nc1nncn12
 : 1 | i | 0.86 | 0.1 | / | / | 101
> O=S(=O)(/N=C(\c1ccc(Cl)cc1)N1CCOCC1)c1ccccc1
 : 2 | i | 1 | -0.7 | 12 | 171 | 100
> CCOc1ccccc1C(=O)Nc1ccc(-c2nnc(-c3ccc(C)cc3)o2)cc1
 : -4 | / | / | -1.2 | / | / | /
> CC(Sc1nnc(Cn2c(=O)sc3ccccc32)n1C)c1ccccc1 (configuration not stated)
 : -3 | i | 1.2 | -0.4 | / | / | 102
> O=C(Nc1ccccc1C(=O)NCc1ccccc1)c1ccccc1Br
 : -5 | i | 1.1 | -0.6 | 0 | 130 | 91
> CCN(C(=O)CCS(=O)(=O)c1ccc(Br)cc1)c1ccc2c(c1)OCO2
 : 1 | i | 0.85 | -0.2 | / | / | 104
> O=C(CN1C(=O)c2cccc3cccc(c23)C1=O)N1CCN(Cc2ccc3c(c2)OCO3)CC1
 : 2 | i | 1.1 | -3.3 | / | / | 100
> COc1ccc(-n2c(SCCC(=O)O)nnc2-c2ccncc2)cc1
 : -2 | i | 1.1 | -1.4 | 81* | 121* | 99
> CCNC(=O)COc1cccc(C(=O)NCc2ccccc2)c1
 : -7 | i | 1.1 | -0.9 | 11 | 75 | 103
> CC(C)(C)c1ccc(-c2nc(O)c(CC(=O)O)s2)cc1
 : / | i | 1.1 | / | / | / | 100

# From PubChem
